RanGTP-Imp inh – disruptors of Ran-importin-beta complex formation – biochemical, FRET, CFP-Ran, YFP-importin-beta, homogeneous, primary screen | AID 2216 | cell-free CFP-Ran/YFP-importin-beta FRET ratio | hit rate 1.1% among 300,000 | inhibition, % (test concentration not listed);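 active means most replicates above 15%; inconclusive means exactly half above 15%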;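 further: 0% = DMSO wells and 100% = Ran loaded with GDP instead of GTP; wells of about 40 µL received 100 nL stock; the first replicate is given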
ALR inh – blocks human ALR sulfhydryl oxidase activity. P55789. hit rate 3.8% among 290,000. purified ALR, DTT oxidation, H2O2 HRP-luminol luminescence. inhibition, % (no concentration beside the values);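 active means mean and each replicate at 75% or more; inconclusive means only one of the two met; inactive means neither met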;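 further: stock transfer was 7.5 nL into about 7.5 µL; 0% = neutral wells and 100% = wells with inactivated enzyme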
Target sequence (P55789 whole entry, looked up): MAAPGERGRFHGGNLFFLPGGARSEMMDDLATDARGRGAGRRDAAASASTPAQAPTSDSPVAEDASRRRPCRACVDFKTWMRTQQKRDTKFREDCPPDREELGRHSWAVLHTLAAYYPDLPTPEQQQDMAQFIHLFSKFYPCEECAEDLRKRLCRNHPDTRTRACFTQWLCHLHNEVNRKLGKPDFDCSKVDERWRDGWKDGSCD
Calb FLC – C. albicans growth modulation with fluconazole | hit rate 0.57% among 300,000 | C. albicans CaCi-2 (fluconazole-resistant clinical isolate) + fluconazole, Alamar Blue growth, 48 h | growth inhibition, % (test concentration not listed);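 active means most replicates above 75%; inconclusive means exactly half above 75%; inactive means most below 75%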;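 further: all wells also contain fluconazole at 8 µg/ml as a sub-toxic cotreatment; 0% = median of DMSO wells and 100% = median of geldanamycin control wells; wells of about 8 µL received 7.5 nL stock; the first replicate is given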
Beta cell apopt – blocks beta cell apoptosis | INS-1E cytokine-induced death, ATP luminescence, 48 h; percent of positive-control rescue, neutral wells zero | protection from apoptosis, % (test concentration not listed) | hit rate 0.8% among 300,000 | AID 435005;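 active means all replicates at 75% or more, or half of them and the mean; inconclusive means half reach 75% but not the mean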;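 further: 0% = cytokine-treated negative control wells and 100% = positive control rescue; higher means more ATP so stronger rescue from cytokine killing; wells of about 40 µL received 100 nL stock; the first replicate is given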
T cruzi inh – blocks replication of Trypanosoma cruzi | T. cruzi beta-gal in NIH3T3, luminescence, 90 h | inhibition, % (concentration not given with the values) | hit rate 1.4% among 300,000;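 active means mean inhibition across valid replicates above about 55%, limit read from the data; inconclusive means mean below that limit but half or more replicates reach it; inactive means mean below it, under half of replicates reach it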;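 further: signal also drops with host cell toxicity which is not excluded here; 0% = plate median of DMSO wells and 100% = zero luminescence signal; higher percent means less beta-gal luminescence so fewer parasites; stock transfer was 50 nL into about 50 µL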
MLL AF4-AF9 inh – blocks AF4 peptide binding to human AF9; hit rate 0.47% among 350,000; inhibition, % at 10 µM; AlphaScreen, biotin-AF4 peptide binding to FLAG-AF9;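 active means every replicate reaching a set inhibition limit, whatever the replicate mean, cut at about 25% in these data; inconclusive means mean inhibition reaches that limit but some replicates miss it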;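 further: 0% = plate neutral control median and 100% = total signal loss; the record names both 10 and 1 µM as test concentration; the first replicate is given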
Target sequence (P42568 whole entry, looked up): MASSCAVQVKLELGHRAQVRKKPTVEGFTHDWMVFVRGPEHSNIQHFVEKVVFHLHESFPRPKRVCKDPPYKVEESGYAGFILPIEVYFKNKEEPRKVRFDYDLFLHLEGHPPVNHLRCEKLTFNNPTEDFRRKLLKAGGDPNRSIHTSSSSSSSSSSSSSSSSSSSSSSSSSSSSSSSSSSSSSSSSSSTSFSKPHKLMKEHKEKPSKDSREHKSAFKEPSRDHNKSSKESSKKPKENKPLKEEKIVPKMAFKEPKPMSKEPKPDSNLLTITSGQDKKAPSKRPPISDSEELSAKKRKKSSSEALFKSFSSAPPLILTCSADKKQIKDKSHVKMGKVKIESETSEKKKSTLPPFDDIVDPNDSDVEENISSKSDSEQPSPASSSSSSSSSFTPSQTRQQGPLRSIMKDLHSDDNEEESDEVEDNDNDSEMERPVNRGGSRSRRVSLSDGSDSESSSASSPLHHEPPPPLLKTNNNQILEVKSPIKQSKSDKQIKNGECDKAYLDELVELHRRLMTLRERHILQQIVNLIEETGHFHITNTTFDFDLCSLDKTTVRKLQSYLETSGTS
Ecoli rRNA inh – selective bacterial rRNA inhibition in E. coli; E. coli WT GFP vs humanized-ribosome RFP mutants, fluorescence, 24 h; active compounds read low; DMSO median 0, no signal -100; hit rate 1.6% among 350,000; GFP signal change (wild-type ribosome), % (concentration not given with the values);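 active means significant combined selectivity score with lowered wild-type GFP, culture density cut under 30%, mutant RFP and density less affected; inactive means any of these conditions unmet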; further: one replicate is shown; some compounds called inactive have numbers as strong as hits
FGF22 binding – binders of recombinant human FGF22 by thermal shift; calls only at 9.99 µM; SYPRO orange fluorescence; percent of sucrose octasulfate shift, DMSO zero; Q9HCT0; hit rate 1.5% among 340,000;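 active means melting point raised past a set limit in the mean and every replicate; inconclusive means no clear call; three in four hits are not shown here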
Target sequence (Q9HCT0 whole entry, looked up): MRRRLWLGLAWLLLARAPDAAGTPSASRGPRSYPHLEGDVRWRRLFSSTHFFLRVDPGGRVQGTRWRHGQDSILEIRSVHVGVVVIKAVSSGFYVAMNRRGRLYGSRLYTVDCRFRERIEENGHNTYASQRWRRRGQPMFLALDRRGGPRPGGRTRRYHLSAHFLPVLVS
Ecoli rRNA inh OD600 – recorded beside Ecoli rRNA inh, whose call it bears; OD600 change, %; measured here: OD600 growth;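 optical density of the mix in the first replicate; 0 = DMSO median and -100 = no signal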
Ecoli rRNA inh RFP – also measured in Ecoli rRNA inh; calls as there; RFP signal change, %; measured here: RFP humanized mutant strains;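 first replicate; 0 = DMSO median and -100 = no signal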
Active calls of the source: *; i = inactive; ? = inconclusive; . = not tested or not shown. Not all compounds are listed; the hit share may differ from the screen's.

SMILES	RanGTP-Imp inh	ALR inh	Calb FLC	Beta cell apopt	T cruzi inh	MLL AF4-AF9 inh	Ecoli rRNA inh	Ecoli rRNA inh OD600	Ecoli rRNA inh RFP	FGF22 binding
Cc1[nH]n(-c2ccccc2)c(=O)c1/C=N/O	4.4	22	1	1	-7	-1.2	2	-1	-6.7	i
Cc1occc1C(=O)NCc1cccs1	1.0	24	-1	-1	-4	.	.	.	.	.
Cc1oc(-c2ccccc2)cc1C(=O)Nc1ccc(N(C)C)cc1	4.8	-1	-4	-1	21	.	.	.	.	.
CC1CCN(c2ccc3c(c2)S(=O)(=O)c2ccccc2C3=O)CC1	-130	.	37	3	20	-23	-20	-26	-17	i
Cc1nnc(SCC(=O)N2CCN(C(=O)c3ccco3)CC2)n1C	.	1	.	5	.	-1.0	10	16	0.1	i
O=C(OCC(=O)N1CCN(c2ccccc2)CC1)c1nc(Cl)ccc1Cl	0.3	4	.	2	1	-0.4	6	-3	1.0	i
COCc1cc(C)n(CC(=O)Nc2cccc(C)c2)c(=O)c1C#N	0.9	-6	4	.	-14	4.4	8	10	0.0	i
COc1ccc(C2=CC3=C(Br)C(=O)C(C)(OC(=O)c4ccc(Cl)nc4)C(=O)C3=CO2)cc1 (stereo not drawn)	-4.9	-13	3	2	-13	.	.	.	.	.
Cc1ccc(S(=O)(=O)N2CCCCC2)cc1NC(=O)C1CC(=O)N(Cc2ccccc2)C1 (stereo not drawn)	2.3	-3	6	4	7	.	.	.	.	.
CSc1nc(C)cc(OCCNS(=O)(=O)c2ccc(C)cc2)n1	?	-25	28	-1	1	.	.	.	.	.
O=C(CN1C(=O)C2C3C=CC(C4CC34)C2C1=O)Oc1ccccc1 (stereo not drawn)	0.7	3	-4	0	-7	2.3	2	3	0.0	i
Cc1cccc(Cl)c1OCCN1CCCC1	1.5	-1	2	8	10	-0.5	2	7	11	i
COC(=O)c1ccc(COC(=O)c2cnccn2)cc1	-1.9	-4	?	5	0	-0.5	7	1	-0.3	i
Cc1nnc(SCC(=O)n2c3c(c4ccccc42)CCCC3)s1	2.3	22	1	-2	22	.	.	.	.	.
c1ccc(-c2ccc(C3=Nn4c(Cn5nnc6ccccc65)nnc4SC3)cc2)cc1	0.4	-11	23	13	34	.	.	.	.	.
COc1ccc(NC(=O)CSc2ccccn2)cc1	3.6	-26	.	-6	-22	.	.	.	.	.
COc1ccc2c(c1)CCc1c(C(=O)N3CCc4ccccc4C3)noc1-2	-0.8	-21	12	-7	16	.	.	.	.	.
O=C(N/C(=C\c1cccc([N+](=O)[O-])c1)C(=O)N1CCCCC1)c1cccs1	1.5	1	35	-1	2	.	.	.	.	.
CCOc1ccc(-c2nnn(CC(=O)Nc3ccccc3OC)n2)cc1OCC	1.9	-1	-3	6	-22	.	.	.	.	.
CCC(O)(CC)C(=O)N/N=C/c1cc(Br)cc(Br)c1O	?	.	6	28	41	-2.3	-21*	-4.5*	4.4*	i
CN(CC(=O)Nc1ccc(N2CCOCC2)cc1)CC(=O)Nc1ccc([N+](=O)[O-])cc1Br	1.7	-1	8	-1	-11	0.5	6	10	1.4	i
COc1ccc(NC(=O)c2sccc2C)c([N+](=O)[O-])c1	3.0	-3	8	5	1	.	.	.	.	.
CCCNC(=O)c1cc(-c2ccc(Br)cc2)on1	4.2	-15	-20	8	22	.	.	.	.	.
Cc1nn(-c2ccccc2)c(C)c1/C=N/O	-5.0	1	-3	-3	-3	.	.	.	.	.
O=C1CC(=C2c3ccccc3-c3ccccc32)C(=O)N1CCN1CCN(c2cccc(Cl)c2)CC1	8.0	-13	-13	.	5	.	.	.	.	.
CN(C)c1ccc(-c2nnc(-c3cccs3)o2)cc1	0.9	.	-13	-3	28	-6.7	-2	-7	4.6	i
Cc1cccc(CCNC(=O)CCS(=O)(=O)c2cc3c(cc2Cl)NC(=O)CO3)c1	6.6	-3	4	-3	8	1.1	2	7	1.2	i
CSc1nnc(NC(=O)c2cccc(S(=O)(=O)N3CCOCC3)c2)s1	-2.0	15	-1	-6	1	-3.2	-6	-7	1.3	i
Cc1ccc(Oc2ccc(Cl)cc2NC(=O)c2ccc(F)cc2F)cc1	-2.2	-2	-8	3	15	-0.5	13	15	-1.3	i
Cc1cc(=O)[nH]c(N2CCCC2)n1	?	-3	-22	-4	-5	.	.	.	.	.
Cc1nnc(NC(=O)CSc2nc3ccccc3o2)s1	-1.7	10	5	2	-13	.	9	11	-0.4	.
CCc1ccc(NC(=O)C(C)Sc2nc(-c3ccco3)c(C#N)c(=O)[nH]2)cc1 (stereo not drawn)	1.5	98*	2	-5	-12	-9.9	0	2	10	i
COc1cccc(NC(=O)C(OC(=O)c2ccc([N+](=O)[O-])o2)c2ccccc2)c1 (stereo not drawn)	-1.1	-45	2	4	2	4.1	1	-2	0.1	i
O=C1CCC(=O)N1c1ccc(S(=O)(=O)Nc2cccc([N+](=O)[O-])c2)cc1	2.2	-3	-2	0	4	-0.3	-5	-6	-4.3	i
COc1ccc(NC(=O)Nc2ncccc2C)cc1	2.3	-27	3	5	-9	2.3	5	6	1.9	i
CSc1ccc(-c2sc(Nc3ccccc3)n[n+]2-c2ccc(F)cc2)cc1	0.8	-10	-13	7	17	.	.	.	.	.
C/C(=N\NC(=S)NCc1ccccc1)c1ccccc1	-0.7	3	0	5	-16	-0.6	-2	-6	0.1	i
CCOC(=O)C1CCC2(CC1)C(C#N)=C(N)Oc1n[nH]c(C)c12 (stereo not drawn)	5.7	25	43	-6	-14	.	.	.	.	.
COc1cc(OC)cc(C(=O)NC(C)CCc2ccccc2)c1 (stereo not drawn)	1.3	4	-12	3	-3	-18	-19	-15	-2.2	i
CCOc1ccc(CN2CCN(Cc3cccc4nonc34)CC2CCO)cc1 (stereo not drawn)	1.0	-5	-2	0	60*	3.2	-3	0	-0.9	i
COc1ccc(S(=O)(=O)N(C)c2ccc(C(=O)NC3CC3)cc2)cc1	5.1	6	-20	-2	5	-1.6	2	-9	-1.0	i
COc1cc(/C=N/NC(=O)c2cccc3ccccc23)cc(OC)c1O	0.8	0	7	-3	-19	-0.1	10	7	3.9	i
CC1=C(C(=O)OCC(Cl)(Cl)Cl)N2C(=O)C(NC(=O)Cc3ccccc3)C2SC1 (stereo not drawn)	-0.7	-4	-6	-6	8	-4.7	-46	-42	-7.8	i
O=C(Nc1ccc(F)cc1)c1oc2ccccc2c1NC(=O)C1CC1	9.2	1	-1	9	-2	3.2	-4	-20	-1.9	i
COc1ccc(CN(C)C(=O)COC(=O)c2c(-c3ccccc3Cl)noc2C)cc1	?	.	7	-1	5	-1.7	-27*	-12*	2.4*	i
Cc1cc(C)c(C)c(S(=O)(=O)N2CCN(c3ccc(O)cc3)CC2)c1C	0.7	74	-39	-8	7	5.0	-37	-53	-8.2	i
CN(CC(=O)O)S(=O)(=O)c1ccc2oc3ccccc3c2c1	0.0	5	-5	-4	-15	-0.1	5	4	1.2	i
O=C(Cc1cccs1)NCc1ccco1	-1.5	-2	2	-1	2	.	.	.	.	.
Cc1c(Cl)cccc1NC(=O)CC1SC(=NCC2CCCO2)NC1=O (stereo not drawn)	0.5	.	-4	-14	-5	0.2	10	2	-0.4	i
CC(C)(C)c1ccc2c(c1)C(=O)c1ccccc1C2=O	-1.5	11	-4	12	4	11	12	10	-1.5	i
Cc1cc(-c2nc3ncccc3o2)ccc1NC(=O)CC(C)C	1.9	.	4	0	7	-0.3	1	0	1.1	i
CCOc1ccc(C(=O)NC2CCN(C(=S)Nc3ccccc3C)CC2)cc1	-6.2	-7	0	-2	-7	-0.5	13	3	-1.9	i
COc1ccc(CNC(=O)C2(CC3CC(c4ccccc4)=NO3)CCN(C(=O)CCCCCBr)CC2)cc1 (stereo not drawn)	3.8	-2	-5	-9	-4	.	.	.	.	.
Cc1cc(C)c(S(=O)(=O)NCc2ccc3c(c2)cc(C)n3C)c(C)c1	-0.2	-2	-2	6	54	0.7	-4	3	39	i
O=C1c2ccccc2C(Nc2ccc3nc(-c4cccnc4)[nH]c3c2)N1Cc1ccco1 (stereo not drawn)	-0.9	24	6	0	2	0.9	-6	-3	-1.9	i
Cc1ccccc1N1C(=O)CC(c2c[nH]c3ccccc23)C1=O (stereo not drawn)	0.2	-1	2	-2	-5	-2.8	0	2	-2.1	i
COc1cccc(C(=O)NCCSc2ccc(Br)cc2)c1	-4.3	-8	5	.	6	-1.3	-50	-76	-17	.
CC(=O)Nc1cccc(NC(=O)Nc2cccc(Cl)c2C)c1	2.6	-10	-3	-1	-9	-2.1	27	16	2.1	i
CCOC(=O)N1CCc2c(sc3nc[nH]c(=O)c23)C1	-1.4	-5	4	5	-20	.	-4	0	-1.9	i
Cc1cc(=O)[nH]n(CCO)c1=O	-1.3	-2	0	.	-5	0.7	8	12	-1.4	i

An excerpt from above, reduced to Ecoli rRNA inh OD600, Ecoli rRNA inh and RanGTP-Imp inh:
SMILES | Ecoli rRNA inh OD600 | Ecoli rRNA inh | RanGTP-Imp inh
COc1cccc(C(=O)NCCSc2ccc(Br)cc2)c1 | -76 | -50 | -4.3
CC(C)(C)c1ccc2c(c1)C(=O)c1ccccc1C2=O | 10 | 12 | -1.5

Next part.
SMILES	RanGTP-Imp inh	ALR inh	Calb FLC	Beta cell apopt	T cruzi inh	MLL AF4-AF9 inh	Ecoli rRNA inh	Ecoli rRNA inh OD600	Ecoli rRNA inh RFP	FGF22 binding
O=C(O)CCn1nnc2ccccc21	-2.8	2	-4	-4	-16	-1.2	8	9	-6.1	i
COc1cccc(NC(=O)CSc2ccc(-c3sc(C)nc3C)nn2)c1	1.4	-13	-3	3	-3	-0.5	.	.	.	i
O=C1CCC(C(=O)OCc2cc(Cl)ccc2OC(F)F)N1 (stereo not drawn)	5.6	-18	-10	-7	13	.	.	.	.	.
CCC(=O)N1CCN(c2ccc(NC(=O)c3ccccc3)cc2)CC1	1.5	2	5	1	5	-2.7	1	6	4.5	i
Cc1ccccc1CSc1nnc(NC(=O)Cc2cccs2)s1	-2.2	-5	2	-4	-2	.	.	.	.	.
CCOC(=O)C1CCCN(Cc2cccs2)C1 (stereo not drawn)	0.0	-5	-1	-1	8	.	.	.	.	.
O=C(NC(=S)N1CCN(c2ccc([N+](=O)[O-])cc2Cl)CC1)c1ccco1	2.3	-12	2	-13	-22	?	2	6	2.0	i
CCn1c(C)cc(C=C2C(=O)c3ccccc3C2=O)c1C	-5.7	.	-5	.	16	1.3	-11	-6	3.5	i
Brc1ccc(C2NCCS2)cc1 (stereo not drawn)	.	4	12	-8	.	-4.7	9	8	-3.3	i
CC(=O)c1sc(NC(=O)c2cccc(N3C(=O)CCC3=O)c2)nc1-c1ccccc1	-3.8	-25	8	1	-7	0.4	1	4	-1.6	.
COc1ccc(NC(=S)Nc2ccccc2Cl)cn1	2.4	-29	-9	2	-11	-1.0	0	-11	-5.2	i

Look-ups from the entries so far.
Result for `Cc1ccccc1CSc1nnc(NC(=O)Cc2cccs2)s1` in RanGTP-Imp inh: -2.2
Result for `COc1ccc(NC(=S)Nc2ccccc2Cl)cn1` in Calb FLC: -9
Result for `CCn1c(C)cc(C=C2C(=O)c3ccccc3C2=O)c1C` in Ecoli rRNA inh RFP: 3.5
